gsp agonist: activates gsp, the McCune-Albright syndrome mutation. gsp mutant cells, cAMP HTRF, 30 min; control for the full effect not named in the record. Potency, µM (titrated, usually from 76.9 µM), for the others: at the top dose activation (cAMP increase), hits mostly activators. 340,000 tested, 0.13% active; active = well fitted activation curve with a large enough effect; inconclusive = small, poorly fitted or top-dose-only effect, or another doubt; inactive = no such curve, though single readings can be large or run the other way; cell line not stated here;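 further: phosphodiesterase inhibitor Ro 20-1724 added with compounds to block cAMP breakdown; potency means the concentration at half of the fitted maximal effect; nearly all actives have a fitted effect of over 60% in size; about a fifth of the inactives were tested at one dose only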
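Cells in DMEM/10% FBS with G418 were pretreated with compounds in DMSO plus […] (300 uM stock) for 30 min at 37C. cAMP was measured by HTRF (cAMP-d2 plus anti-cAMP antibody-K) after 30 min at room temperature.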
gsp antagonist: gsp mutant antagonism; Potency, µM (titrated, usually from 76.9 µM), without a hit: at the top dose activity change, negative = inhibition, most hits filed as inhibitors; 340,000 tested, 0.4% active; gsp-mutant cells, cAMP HTRF, 30 min; control for the full effect not named in the record; active = falling curve of any shape with a large fitted effect; inconclusive = falling curve, mostly with a smaller effect; inactive = flat or rising curve; cell line not stated here;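 further: intracellular cAMP measured with PDE inhibitor Ro 20-1724 present during compound exposure; potency means the concentration at half of the fitted maximal effect; on the % scale 0 is the no-effect control and ±100 the full control effect; nearly all actives have a fitted effect of over 65% in size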
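G418-selected cells were plated in DMEM/10% FBS for 16-24 h at 37C, then treated with compounds plus the PDE inhibitor […] (300 uM solution added) for 30 min at 37C. Intracellular cAMP was measured by HTRF after 30 min lysis at room temperature.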
TRPV1 potentiator: potentiators of human vanilloid receptor 1 (TRPV1); Q8NER1; TRPV1-expressing cells, Fluo-8 calcium influx, capsaicin EC20 potentiation; host cell line not named in the record; control for the full effect not named in the record; potentiation, % at 8.33 µM; 320,000 tested, 0.02% active; AID 540277; active means potentiation above 80%; inconclusive means 30% to 80%; inactive means below 30%; further: 0% is about no effect
Target sequence (Q8NER1 whole entry, looked up): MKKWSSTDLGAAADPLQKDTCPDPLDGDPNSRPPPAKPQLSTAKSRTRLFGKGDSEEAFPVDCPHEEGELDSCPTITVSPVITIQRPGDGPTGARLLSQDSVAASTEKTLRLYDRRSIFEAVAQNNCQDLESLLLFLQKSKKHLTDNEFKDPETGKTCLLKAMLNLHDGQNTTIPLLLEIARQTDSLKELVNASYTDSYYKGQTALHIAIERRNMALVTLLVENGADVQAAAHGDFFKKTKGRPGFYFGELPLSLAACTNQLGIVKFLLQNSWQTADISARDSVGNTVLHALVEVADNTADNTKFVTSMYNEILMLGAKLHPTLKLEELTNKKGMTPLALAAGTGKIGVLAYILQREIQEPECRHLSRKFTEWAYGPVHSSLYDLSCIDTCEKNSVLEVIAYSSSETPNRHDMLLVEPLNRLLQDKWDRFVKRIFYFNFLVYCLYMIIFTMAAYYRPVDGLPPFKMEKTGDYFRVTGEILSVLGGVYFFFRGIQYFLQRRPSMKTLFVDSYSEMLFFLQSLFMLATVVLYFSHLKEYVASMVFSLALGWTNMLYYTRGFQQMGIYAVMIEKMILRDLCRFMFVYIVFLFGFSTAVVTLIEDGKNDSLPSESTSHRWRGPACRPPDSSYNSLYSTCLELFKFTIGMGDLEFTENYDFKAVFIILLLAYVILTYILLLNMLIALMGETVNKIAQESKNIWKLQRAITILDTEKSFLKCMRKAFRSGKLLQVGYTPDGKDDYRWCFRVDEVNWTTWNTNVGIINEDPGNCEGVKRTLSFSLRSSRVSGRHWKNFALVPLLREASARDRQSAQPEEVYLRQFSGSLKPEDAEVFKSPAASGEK
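Fluo-8 calcium influx in TRPV1-expressing cells, kinetic read (ex 480/em 520 nm). Compound added and read 3 min for agonist activity, followed by capsaicin at EC20 final and 2 min further read for enhancement.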
ClpP mod: qHTS Assay for Activators of ClpP. 340,000 tested, 1.9% active. Potency, µM (top dose mostly 57.5 µM), for inactives: at the highest dose activity change, negative = active. purified B. subtilis ClpP, FRET peptide cleavage, 20 min; active = well fitted falling curve with a large enough effect; inconclusive = small, poorly fitted or top-dose-only effect; inactive = no such curve, though single readings can be large or run the other way; further: potency means the concentration at half of the fitted maximal effect; the source files actives as falling curves though it sought activators and does not explain the sign; nearly all actives have a fitted effect of over 65% in size; many hits overshoot -100%
Target sequence (P80244 whole entry, looked up): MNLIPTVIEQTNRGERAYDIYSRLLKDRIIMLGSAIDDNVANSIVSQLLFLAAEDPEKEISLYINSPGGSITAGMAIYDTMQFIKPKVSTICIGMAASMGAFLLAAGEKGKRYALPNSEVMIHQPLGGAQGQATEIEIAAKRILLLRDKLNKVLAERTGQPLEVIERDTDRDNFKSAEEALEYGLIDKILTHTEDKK
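Buffer: 100 mM Tris/HCl pH8, 100 mM KCl, 0.05% low protease BSA, 2.5% glycerol, 0.01% Tween-20. ClpP 10 microg/mL final; 20 min RT; delta FRET normalized to ADEP and DMSO controls.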
TRPML1 inh: blocks the human TRPML1 channel; Q9GZU1; TRPML1-inducible cells, Ca2+ dye fluorescence, FDSS; hits give low values; inhibition of EC80 agonist-evoked calcium signal; activity change, negative = inhibition, % (no concentration beside the values); 390,000 tested, 0.02% active; in the data active means activity change below about -50%; inconclusive means about -30% to -50%; inactive means above about -30%;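 further: stimulus is agonist 54-4 at its EC80 concentration; on the % scale 0 is the no-effect control and ±100 the full control effect; compound concentration not given in the record; the text of the record puts the active cut at -80%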
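TRPML1-DL cells, Tet-induced overnight (~16 h, 37 °C) at 1,500 cells/well, were loaded with Ca8 no-wash dye plus quencher for 45-90 min at room temperature. Compounds were pinned during FDSS kinetic reading; agonist 54-4 at EC80 (4 uM final) then added.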
Menin MLL FP FL: displaces fluorescein MLL peptide from human menin; FP activity change, % at 61.4 µM; 290,000 tested, under 10 active; AID 1766; Fluorescence polarization, fluorescein-MLL peptide displacement from menin; inconclusive = falling polarisation curve, or a change in total fluorescence; inactive = total fluorescence flat and polarisation flat or rising; no compound was filed as active; the % refers to the polarisation; negative = inhibition;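 further: % of control where 0% means no effect; inhibitors lower the polarisation; unlabelled MLL peptide was the positive control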
Sfp PPTase inh: Sfp phosphopantetheinyl transferase inhibition; Q9F4F7; Biochemical Sfp PPTase activity, qHTS; Potency, µM, for the others: max response, negative = inhibition, hits mostly inhibitors; 310,000 tested, 3.5% active; AID 1490; active means well fitted inhibition curve with a large enough effect; inconclusive means small, poorly fitted or top-dose-only effect, or another doubt; inactive means no such curve, though single readings can be large or run the other way;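 further: the enzyme is Sfp with the accession as filed and its product quenches rhodamine fluorescence; potency means the concentration at half of the fitted maximal effect; 0% = enzyme reaction without inhibitor and -100% = no enzyme wells; top concentration of the series not given in the record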
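After 15 min at room temperature with compound, 15 nM Sfp received 5 uM rhodamine-CoA plus 12.5 uM BHQ-2-ybbR (50 mM Hepes pH 7.6, 10 mM MgCl2). Rate came from the fluorescence difference over 30 min, ex 525/em 598 nm.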
The depositor's hits bear a star; ? = inconclusive; . = not tested or not shown; & = joins results of further samples; [ ] = another dose, or the depositor's remark.

SMILES	gsp agonist	gsp antagonist	TRPV1 potentiator	ClpP mod	TRPML1 inh	Menin MLL FP FL	Sfp PPTase inh
Cc1ccc(N(CC(=O)NC2CCCC2)C(=O)CNC(=O)c2cccs2)cc1C	-13%[15.4 µM]	7%	8	.	4	-4.9	1%
O=C1OCCN1C(=O)[C@H]1[C@H](c2ccc(F)cc2)C(c2cccc(Cl)c2)=NN1c1ccc(Br)cc1	.	-4%	.	4.8%	3	1.0	13%
Cc1cc(Cn2nnc3ccccc32)c(O)c(C(C)(C)C)c1	-16%	-13%	-15	-5.0%	37	.	.
CCN(c1ccccc1)S(=O)(=O)c1cccc(C(=O)OCc2nc3sc(C)c(C)c3c(=O)[nH]2)c1	?	-7%	5	-17%	24	16	13%
CCCC(=O)Nc1ccc(NC(=S)NC(=O)c2cccs2)cc1	?	-7%	1	0.4%	32	0.0	-15%
CCOC(=O)c1c(NC(=O)c2cccs2)sc(C)c1C	8%	9%	6	-17%	-5	-1.5	-9%
Cc1ccc(C(C)C)cc1OCCN1CCCC1	26%[15.4 µM]	15%	2	-1.3%	5	-1.0	25%
Cc1cc(Br)c(NC(=O)C(C)Sc2nnnn2C)c(Br)c1 (centres undefined)	3%	9%	9	2.8%	-8	.	.
CN1CCc2cc3c(c4c2C1CC41CCC(=NO)CC1)OCO3 (centres undefined)	17%	2%	?	32µM*	-7	?	-2%
CC1(C)NC(=O)N(CCCSc2ccc(Cl)cc2)C1=O	-25%	-12%	-6	0.2%	4	2.6	13%
CC(C)c1ccc(CN2CCN(C(=O)CSc3nnnn3C3CC3)CC2)cc1	-6%	-4%	-13	0.0%	23	.	.
Cc1cccc(/C=C2\Sc3ccc(C(=O)N4CCCCC4)cc3N(C)C2=O)c1	-24%	6%	-8	-2.5%	15	.	-28%
CCCCNC(=S)NNC(=O)c1ccncc1	8%	-1%	6	.	1	5.5	20%
OCCC1CN(Cc2cccn2-c2cccnc2)CCN1CCc1ccccc1 (centres undefined)	-6%	5%	-6	.	-7	-0.7	14%
Cc1ccccc1-n1nc2c(c1NC(=O)/C=C\c1ccc3c(c1)OCO3)CSC2	1%	-6%	5	?	-4	3.6	-5%
O=S(=O)(NCC(c1ccccc1)N1CCC(O)CC1)c1ccc(Cl)cc1 (centres undefined)	?	9%	-18	-0.5%	-10	-1.8	19%
Cc1ccc(S(=O)(=O)NCC(=O)NCC(=O)NC(C)c2ccccc2Br)cc1C (centres undefined)	15%[15.4 µM]	5%	5	-1.9%	-2	-0.1	3%
Cc1ccc(C(C(=O)NC(C)(C)C)N(Cc2cccs2)C(=O)c2ccc3c(c2)OCCO3)cc1 (centres undefined)	-5%[15.4 µM]	-20%	-4	.	3	-2.7	-1%
Cc1ccc2c(c1)-c1cc(C)nn1C(c1ccc3c(c1)OCO3)N2 (centres undefined)	9%	?	8	13µM*	19	0.8	7%
CCc1c(C)nc(N2CCN(c3ccc(OC)cc3)CC2)[nH]c1=O	-2%	-6%	13	-1.3%	.	3.6	14%
COc1ccccc1NC(=O)c1ccc(NC(=O)COC(=O)c2cncc(Br)c2)cc1	27%	?	.	-4.7%	-11	.	.
CCOC(=O)c1c(C)[nH]c(N=Nc2cc(C(=O)O)cc(C(=O)O)c2)c1C	16%[15.4 µM]	-1%	-2	.	2	2.3	-2%
CCOc1ccc(CCNC(=O)CN2C(=O)NC3(CCc4ccccc43)C2=O)cc1OCC (centres undefined)	4%	14%	7	-0.7%	-3	.	.
CSc1nc2ncc3c(n2n1)CC(C)(C)CC3=O	6%[15.4 µM]	-2%	9	.	-17	1.9	12%
NC(=O)c1ccc(-n2nnnc2SCC(=O)c2ccc(O)c(O)c2)cc1	-3%[15.4 µM]	0%	3	.	-10	2.8	?
SMILES	gsp agonist	gsp antagonist	TRPV1 potentiator	ClpP mod	TRPML1 inh	Menin MLL FP FL	Sfp PPTase inh
CCCCN1C(=O)/C(=C(/C#N)C(=O)N2CCCC2)c2ccccc21	6%	4%	8	-3.7%	-4	3.7	-8%
COc1ccc(CCNC(=O)c2cc(S(=O)(=O)N3CCOCC3)cn2C)cc1OC	-25%	7%	20	-2.9%	6	0.3	2%
Cc1ccccc1CN1C(=O)c2ccccc2Sc2ccc(C(=O)NCCCN3CCOCC3)cc21	-40%[inhibitor]	9%	-12	0.5%&-0.9%	7&0	.	-13%
Cc1ccc(S(=O)(=O)c2nc(-c3ccco3)oc2SCC(N)=O)cc1	18%	-6%	15	.	18	6.0	1%
O=C(COC(=O)c1ccco1)Nc1nc2ccc([N+](=O)[O-])cc2s1	22%	?	.	-0.7%	-3	-1.6	-1%
N#Cc1c(NC(=O)CSc2ncnc3sccc23)oc(-c2ccco2)c1-c1ccco1	8%	-16%	16	-7.7%	-1	?	?
N[C@@H](CO)c1nnc([C@H](CCC(=O)O)NC(=O)C2CCNCC2)o1	6%	1%	3	-0.1%	5	-2.2	?
Cc1ccc(Cc2c(C)[nH]c(=S)[nH]c2=O)cc1	-4%[15.4 µM]	-8%	3	-1.1%	-17	0.5	13%
Cc1cccc(NC(=S)NN2CCN(C)CC2)c1	-2%	-13%[15.4 µM]	-1	-1.0%	35	2.9	-12%
C/C(=N\N1CCN(c2ccccc2)CC1)c1ccco1	3%[15.4 µM]	11%	-2	0.9%	-2	-0.2	-10%
Cc1ccc(NC(=O)C[n+]2cc(-c3ccccc3)n3c2CCC3)c(C)c1	30%	4%	-5	.	16	7.7	3%
Cc1nc(C)c(C(=O)N/N=C/c2ccco2)s1	18%	3%	-6	.	12	-1.3	20%
Cc1ccc(C2N(c3nccs3)C(=O)C3CCCN32)cc1 (centres undefined)	?	6%	12	-1.1%	-9	-0.6	?
COc1ccc(CC(=O)Nc2nc(C)cs2)cc1	0%[15.4 µM]	14%	4	-0.1%	10	0.4	3%
CCOc1ccc(N(C(C)C(=O)NN=C2CCCCCCC2)S(C)(=O)=O)cc1 (centres undefined)	0%	1%	1	-1.4%	20	8.0	3%
CCN(CC)c1ccc(S(=O)(=O)N2CCOCC2)cc1NC(=O)CN1CCN(Cc2ccccc2)CC1	6%	-26%	-16	-1.8%	32	3.7	79µM*
COc1ccnc(N2CCN(c3cccc(C(F)(F)F)c3)CC2)c1C#N	13%	7%	-10	1.0%	1	-3.8	14%
O=C(CP(=O)(c1ccccc1)c1ccccc1)Nn1cnnc1	-3%	11%	-12	-1.2%	25	0.7	5%
CN1C(=S)SC(C)(C)C1NO (centres undefined)	5%	12%	11	-1.8%	-19	-0.3	-2%
COc1cc(Cl)c(C)cc1NC(=O)CSc1nnc(CCC(=O)O)c(=O)[nH]1	2%	3%	-5	.	-10	-4.0	22%
COC(=O)c1cc(Cl)c(NC(=O)c2cc(OC)c(OC)c(OC)c2)cc1OC	-27%	7%	16	-27%	-10	0.1	18%
N#C/C(=C\c1ccc(F)c(F)c1)C(=O)NC1CCCCC1	15%	8%	5	-2.6%	1	-1.5	19%
CC(CCc1ccccc1)NC(=O)CNC(=O)N1CC(=O)Nc2ccccc21 (centres undefined)	-34%[inhibitor]	11%	-4	0.2%	-8	-0.1	12%
COCCn1c(SCC(=O)NNC(=O)c2ccccc2)nc2ccccc2c1=O	17%	1%	28	28µM*	-6	6.3	9%
COc1ccc(-n2nnnc2CNC(=O)c2c(-c3ccccc3Cl)noc2C)cc1	-59%[inhibitor]	.	.	0.9%	10	.	.

Limited to Sfp PPTase inh (two entries from above):
Compound	Sfp PPTase inh
N#C/C(=C\c1ccc(F)c(F)c1)C(=O)NC1CCCCC1	19%
CC(CCc1ccccc1)NC(=O)CNC(=O)N1CC(=O)Nc2ccccc21 (centres undefined)	12%

Further records follow:
SMILES	gsp agonist	gsp antagonist	TRPV1 potentiator	ClpP mod	TRPML1 inh	Menin MLL FP FL	Sfp PPTase inh
COc1ccc(S(=O)(=O)N(C)C[C@@H]2OCc3cnnn3CCCC(=O)N([C@H](C)CO)C[C@H]2C)cc1	-49%[inhibitor]	.	.	-0.8%	-10	.	.
O=C(O)CCN(Cc1ccccc1)S(=O)(=O)c1ccc(Cl)cc1F	-4%	-6%	-1	.	-3	-0.5	25%
CC1=C(C(=O)Nc2ccc(C)cc2C)C(c2cccc(Cl)c2)n2nc(C(=O)OC(C)C)nc2N1 (centres undefined)	-1%	9%	-4	-0.4%	4	5.7	6%
Cc1ccc(-c2cc(-c3c(C)nn(C)c(=O)c3N)[nH]n2)cc1	-4%	7%	1	1.1%	6	0.2	4%
CC(C)=CCc1c(O)cc2c(c1O)C(=O)CC(c1ccccc1)O2 (centres undefined)	0%	-7%	.	-2.1%	-7	.	.
O=C(Cn1cnc2ccccc2c1=O)NCC(=O)N1CCOCC1	-4%[15.4 µM]	-2%	8	.	2	1.2	11%
C=CCNC(=O)CSc1nnc(-c2cccs2)o1	4%	2%	4	-18%	4	2.1	25%
N=C1/C(=C\c2ccc(OC(=O)c3ccco3)cc2)C(=O)N=C2SC=NN12	-2%[15.4 µM]	-15%	-6	.	8	13	-4%
COc1ccccc1C(CCNS(=O)(=O)c1ccc(C)cc1)c1ccco1 (centres undefined)	-8%	-19%	13	-2.2%	-8	2.0	-6%
COc1ccc(CNC(=O)CN(Cc2ccccc2Cl)C(=O)c2csnn2)cc1	-2%[15.4 µM]	3%	3	-6.5%	30	.	12%
COc1ccc(C(=O)NC2CCN(Cc3ccccc3)C2)cc1S(=O)(=O)N1CCOCC1 (centres undefined)	-8%	-2%	14	-3.8%	-2	.	.
Cc1noc(C)c1C(=O)OCC(=O)Nc1ccccc1SCC#N	?	-21%	1	-2.3%	-14	.	.
CS(=O)(=O)N(Cc1ccccc1)c1ccc(C(=O)NN=C2CCCCCC2)cc1	-27%	6%	-4	-2.1%	8	-6.6	-4%
S=C(N/N=C1\C2CN3CCN(C2)CC1(c1ccccc1)C3)Nc1ccccc1	-4%	-9%	27	1.2%	-8	1.0	-10%
COc1ccc(-n2ccnc2SCC(=O)Nc2ccc(OC)cc2OC)cc1	-16%	-9%	2	1.0%	10	-0.8	20%
Cc1ccc(CN2CC(C(=O)Nc3ccc(F)c([N+](=O)[O-])c3)CC2=O)cc1 (centres undefined)	-2%	-5%	11	-0.9%	-9	-3.3	8%

High-throughput results deposited in PubChem by National Center for Advancing Translational Sciences (NCATS).
